Screening results deposited in PubChem BioAssay by several laboratories.
3CLpro inhibitor: SARS-CoV 3CLpro protease inhibitors, primary screen, biochemical, quenched FRET; 290,000 compounds, 0.14% hits; Replicase polyprotein 1ab (Severe acute respiratory syndrome coronavirus), P0C6X7; inhibition, % at 6 µM; recombinant SARS-CoV 3CLpro, quenched FRET peptide cleavage; AID 1706, 2009; in the data active means inhibition above about 12%
TcdB inh: TcdB glycohydrolase inhibitors, primary screen, biochemical, single point, plate reader | 350,000 compounds, 0.24% hits | TcdB glycohydrolase enzymatic assay | Toxin B (Clostridioides difficile), P18177 | inhibition, % at 9.99 µM | AID 652162, 2013; in the data active means inhibition above about 10%
Target sequence (P18177 whole entry, looked up): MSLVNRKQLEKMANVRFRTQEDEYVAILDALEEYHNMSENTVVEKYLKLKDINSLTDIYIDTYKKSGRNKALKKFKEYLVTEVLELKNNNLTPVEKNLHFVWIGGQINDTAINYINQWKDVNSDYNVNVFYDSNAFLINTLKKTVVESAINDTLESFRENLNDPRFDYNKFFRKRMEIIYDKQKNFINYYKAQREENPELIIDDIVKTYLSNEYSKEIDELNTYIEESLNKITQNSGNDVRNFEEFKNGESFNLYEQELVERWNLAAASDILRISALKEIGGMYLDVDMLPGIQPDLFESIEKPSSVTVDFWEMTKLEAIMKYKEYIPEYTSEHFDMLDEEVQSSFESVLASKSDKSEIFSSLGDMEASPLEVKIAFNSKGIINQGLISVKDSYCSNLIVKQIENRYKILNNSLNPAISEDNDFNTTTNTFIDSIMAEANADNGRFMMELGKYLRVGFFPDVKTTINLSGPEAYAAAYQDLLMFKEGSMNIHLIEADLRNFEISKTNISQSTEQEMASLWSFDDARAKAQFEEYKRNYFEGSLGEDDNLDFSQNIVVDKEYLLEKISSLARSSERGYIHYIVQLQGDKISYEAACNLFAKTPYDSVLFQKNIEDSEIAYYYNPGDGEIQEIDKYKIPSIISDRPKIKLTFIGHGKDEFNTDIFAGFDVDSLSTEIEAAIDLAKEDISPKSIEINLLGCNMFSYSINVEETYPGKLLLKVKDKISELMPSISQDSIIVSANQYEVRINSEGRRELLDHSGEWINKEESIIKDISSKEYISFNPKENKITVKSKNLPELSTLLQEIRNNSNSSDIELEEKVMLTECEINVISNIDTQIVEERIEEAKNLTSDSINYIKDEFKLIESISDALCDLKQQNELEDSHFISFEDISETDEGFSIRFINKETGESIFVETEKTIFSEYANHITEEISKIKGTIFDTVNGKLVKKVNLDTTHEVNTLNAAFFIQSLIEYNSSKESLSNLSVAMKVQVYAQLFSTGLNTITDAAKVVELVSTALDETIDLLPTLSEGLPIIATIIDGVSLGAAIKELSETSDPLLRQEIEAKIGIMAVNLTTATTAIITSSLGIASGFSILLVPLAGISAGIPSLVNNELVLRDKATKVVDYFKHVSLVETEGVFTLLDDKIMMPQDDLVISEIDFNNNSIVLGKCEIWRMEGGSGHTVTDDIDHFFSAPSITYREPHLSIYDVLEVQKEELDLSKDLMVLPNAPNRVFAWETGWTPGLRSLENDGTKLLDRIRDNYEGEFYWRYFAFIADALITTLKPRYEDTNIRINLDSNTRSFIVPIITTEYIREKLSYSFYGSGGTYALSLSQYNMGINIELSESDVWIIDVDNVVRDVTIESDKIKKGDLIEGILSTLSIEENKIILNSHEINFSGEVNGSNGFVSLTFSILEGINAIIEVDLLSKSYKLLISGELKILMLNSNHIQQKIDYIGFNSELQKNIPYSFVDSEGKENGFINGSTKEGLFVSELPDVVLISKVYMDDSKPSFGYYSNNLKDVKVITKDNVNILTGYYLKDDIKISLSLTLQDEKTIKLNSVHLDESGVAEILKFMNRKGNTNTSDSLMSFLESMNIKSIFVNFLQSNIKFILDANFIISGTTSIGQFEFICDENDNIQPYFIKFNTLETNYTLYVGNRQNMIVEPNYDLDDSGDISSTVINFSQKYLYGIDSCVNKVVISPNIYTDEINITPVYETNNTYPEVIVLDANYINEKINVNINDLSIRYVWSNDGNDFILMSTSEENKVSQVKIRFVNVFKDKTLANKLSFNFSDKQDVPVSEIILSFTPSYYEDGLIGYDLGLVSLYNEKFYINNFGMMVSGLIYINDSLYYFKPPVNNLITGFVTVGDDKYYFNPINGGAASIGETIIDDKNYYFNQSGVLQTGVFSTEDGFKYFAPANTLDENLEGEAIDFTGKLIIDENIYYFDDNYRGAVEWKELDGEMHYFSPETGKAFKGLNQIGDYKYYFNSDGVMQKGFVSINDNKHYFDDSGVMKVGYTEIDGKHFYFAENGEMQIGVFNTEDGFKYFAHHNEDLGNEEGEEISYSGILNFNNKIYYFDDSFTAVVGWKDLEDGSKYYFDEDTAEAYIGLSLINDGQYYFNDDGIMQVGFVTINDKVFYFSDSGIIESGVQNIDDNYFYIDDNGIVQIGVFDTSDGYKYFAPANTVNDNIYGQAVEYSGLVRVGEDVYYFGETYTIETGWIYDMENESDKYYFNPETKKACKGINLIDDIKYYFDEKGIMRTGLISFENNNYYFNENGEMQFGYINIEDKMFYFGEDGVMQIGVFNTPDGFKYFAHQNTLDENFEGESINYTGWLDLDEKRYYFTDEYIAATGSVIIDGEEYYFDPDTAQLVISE
Anthrax LF inh2: Bacillus anthracis LF protease inhibitors, primary screen, biochemical, multiplex microsphere, MLPCN library; 360,000 compounds, 0.12% hits; AID 588501, 2011; multiplex microsphere protease cleavage assay; inhibition, % at 10 µM; in the data active means inhibition above about 30%; further: plate controls were buffer without enzyme for full effect and enzyme alone for no effect
DUSP3 inh: VHR1 phosphatase inhibitors, primary screen, biochemical, absorbance, uHTS; Dual specificity protein phosphatase 3 (Homo sapiens), P51452; recombinant VHR phosphatase, pNPP absorbance; inhibition, % at 13.3 µM; 290,000 compounds, 0.52% hits; AID 1654, 2009; in the data active means inhibition above about 50%; further: some compounds called inactive have numbers as strong as hits
Starred values were filed as active, the others as inactive.

Screening O=C(Cn1c(C(=O)c2ccccc2)nc2ccccc21)c1ccc(Cl)cc1 returned TcdB inh 1.5 and Anthrax LF inh2 -10.9.
`O=C(NC1CCC(Oc2ccc(C(=O)O)cc2)CC1)NC12CC3CC(CC(C3)C1)C2` (stereo not drawn) gave TcdB inh -0.4 and Anthrax LF inh2 0.3.
C#Cc1cccc(N2C(=O)C3C4C=CC(C3C2=O)C2C(=O)N(c3cccc(C#C)c3)C(=O)C42)c1 (stereo not drawn) was read as TcdB inh 1.5 and Anthrax LF inh2 -6.3.
`c1ccc(CN2CCC3CC2c2cc(N4CCOCC4)ccc23)cc1` (stereo not drawn) gave TcdB inh 0.1 and Anthrax LF inh2 -3.5.
Screening CC(=O)c1cn(S(=O)(=O)c2ccccc2)c2ccccc12 returned 3CLpro inhibitor 3.7, Anthrax LF inh2 -0.5 and DUSP3 inh 11.5.
For CN1CCN(C(=O)COc2ccc(-c3nc4ccccc4s3)cc2)CC1 the results were 3CLpro inhibitor 1.1, Anthrax LF inh2 -0.5 and DUSP3 inh 13.2.
Screening O=C(N/N=C\c1ccc(Sc2ccccn2)o1)c1cccc(F)c1 returned 3CLpro inhibitor -1.0, Anthrax LF inh2 -3.6 and DUSP3 inh 27.3.
`C=C(CN(C)C)C(=O)c1ccc2c(c1)OCO2` gave TcdB inh 2.0 and Anthrax LF inh2 -2.0.
CC(C)[N+]12CCC(CC1)C(C(O)(c1ccccc1)c1ccccc1)C2 (stereo not drawn) was read as 3CLpro inhibitor 1.9, TcdB inh -0.2, Anthrax LF inh2 1.4 and DUSP3 inh 8.5.
For CC(N)C(=O)NC(CO)C(O)C(N)C=O (stereo not drawn) the results were TcdB inh 0.8 and Anthrax LF inh2 2.7.
Screening O=C1NN(c2ccccc2)C(=O)/C1=C/c1ccc(Sc2ccc(Cl)cc2)o1 returned 3CLpro inhibitor 2.4, TcdB inh -0.9, Anthrax LF inh2 5.1 and DUSP3 inh 3.3.
Screening O=C1NC[C@H](c2ccccc2)OC(=O)[C@@H](Cc2ccc(F)cc2)CC/C=C/C[C@@H]1CC(=O)N(CCO)Cc1ccccc1 returned TcdB inh 0.9 and Anthrax LF inh2 -0.2.
Screening O=c1c(Cl)c(O)ccn1C1OC(CO)C(O)C1O (stereo not drawn) returned TcdB inh 0.8 and Anthrax LF inh2 -4.6.
`COc1ccc(S(=O)(=O)n2c(C)nc3ccccc32)cc1C` gave 3CLpro inhibitor 1.7, TcdB inh 0.9, Anthrax LF inh2 -4.2 and DUSP3 inh -17.9.

An excerpt from above in order of count of non-hydrogen atoms, smallest number first.
For CC(N)C(=O)NC(CO)C(O)C(N)C=O (stereo not drawn) the results were TcdB inh 0.8 and Anthrax LF inh2 2.7.
Screening O=c1c(Cl)c(O)ccn1C1OC(CO)C(O)C1O (stereo not drawn) returned TcdB inh 0.8 and Anthrax LF inh2 -4.6.
Screening CC(=O)c1cn(S(=O)(=O)c2ccccc2)c2ccccc12 returned 3CLpro inhibitor 3.7, Anthrax LF inh2 -0.5 and DUSP3 inh 11.5.
Screening O=C(N/N=C\c1ccc(Sc2ccccn2)o1)c1cccc(F)c1 returned 3CLpro inhibitor -1.0, Anthrax LF inh2 -3.6 and DUSP3 inh 27.3.
Screening O=C(Cn1c(C(=O)c2ccccc2)nc2ccccc21)c1ccc(Cl)cc1 returned TcdB inh 1.5 and Anthrax LF inh2 -10.9.
`O=C(NC1CCC(Oc2ccc(C(=O)O)cc2)CC1)NC12CC3CC(CC(C3)C1)C2` (stereo not drawn) gave TcdB inh -0.4 and Anthrax LF inh2 0.3.
Screening O=C1NC[C@H](c2ccccc2)OC(=O)[C@@H](Cc2ccc(F)cc2)CC/C=C/C[C@@H]1CC(=O)N(CCO)Cc1ccccc1 returned TcdB inh 0.9 and Anthrax LF inh2 -0.2.

This is a subset (hit frequency here may not be typical).
